Source: PubChem
MgrA-DNA mod: alters Staphylococcus aureus MgrA binding to DNA | fluorescence polarization | inhibition, %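 (about 10 µg/mL by stock and volumes)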 | actives 0.13% (n = 84,000);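 active = above 50% in either of two replicates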;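 also: 0% = protein plus DNA without compound and 100% = DNA alone without protein; higher means less MgrA bound to DNA so lower polarization; one replicate is shown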
S aureus helic: blocks Staphylococcus aureus DNA helicase; purified S. aureus helicase, fluorescence unwinding assay; about half of the hits fall short of the stated cut; inhibition, %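 (tested at about 80 µM)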; actives 0.05% (n = 120,000); AID 485395;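 active = both duplicates at 50% or more, or one of them with a favoured structure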;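 also: 0% = mean of negative control wells and 100% = mean of positive control wells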
Active calls of the source: *; nt = no result given; & = joins results of further samples.

SMILES | MgrA-DNA mod | S aureus helic
COCSc1ccc(C(=O)OCC(=O)c2ccc(Br)cc2)cc1 | nt | 7
O=c1c(=NNc2nn[nH]n2)c(=O)c2ccccc12 | 8.0 | 11
CC(=O)NC(=O)c1nnn(-c2ccc(C)cc2)c1NC(C)=O | nt | -3
O=C(O)c1cccc(S(=O)(=O)NNc2ccccc2C(F)(F)F)c1 | nt | -12
CCOC(=O)Cn1c(=O)n(Cc2ccc(F)cc2)c(=O)c2cccnc21 | nt | 18
COC(=O)c1ccc(-c2ccco2)n1Cc1cccc(F)c1 | nt | -36
CC1CCN(Cc2ccc(NC(=O)C3CCN(c4nnc(-n5cccc5)s4)CC3)cc2)CC1 | nt | 3
CCCc1cc(=O)[nH]c(SCc2nc3ccccc3[nH]2)n1 | -1.1 | 3
COc1cc(NC(=O)c2nn3c(c2Cl)NC(c2ccco2)CC3C(F)(F)F)cc(OC)c1OC (stereo not drawn) | 0.2 | nt
O=C(CC1SC(=O)N(CN2CCOCC2)C1=O)Nc1cccc(O)c1 (stereo not drawn) | 42 | 3
COc1ccc(OC(C)C(=O)NCCC2=CCCCC2)cc1 (stereo not drawn) | -3.0 | 2
CC1CCCC(C)N1C(=O)CSc1nnc(-c2ccccc2)n1N (stereo not drawn) | 0.1 | -2
COC(=O)c1ccn(C(=O)c2ccnn2C)n1 | 2.6 | 4
CC1=CC(C)(C)N(C(=O)Nc2ccc(C)cc2)c2ccccc21 | 3.8 | 11
CCOC(=O)c1cc2c(=O)n3ccccc3nc2n(Cc2ccccc2)c1=NC(C)=O | nt | -4
Oc1ccc(-c2nc(-c3ccccc3)c(-c3ccc(O)cc3)[nH]2)cc1 | 1.3 | 2
Nc1ccccc1C(=O)Nc1cc(C(F)(F)F)cc(C(F)(F)F)c1 | 1.3 | nt
C=CCn1c(=N)c(-c2nc3ccccc3s2)cc2c(=O)n3ccccc3nc21 | nt | -37
CS(=O)(=O)Nc1ccccc1C(=O)OCC(=O)N1CCC(c2ccccc2)=N1 | nt | 1
CCOC(=O)CSc1nnc(OCC)n1-c1ccccc1 | 0.0 | nt
CCOc1ccc(C(=O)COC(=O)Cc2n[nH]c(=O)c3ccccc23)cc1 | nt | -3
CCN1CCN(c2nnc(-c3ccccc3)c3ccccc23)CC1 | nt | -13
O=C(CC(O)(c1ccccc1)C(F)(F)F)c1ccccc1 (stereo not drawn) | 0.0 | 17
Cc1ccc(N(C(C)C(=O)O)S(C)(=O)=O)cc1C (stereo not drawn) | -1.9 | 16
CN(C)S(=O)(=O)c1ccc(NC2Sc3ccccc3NC2=O)cc1 (stereo not drawn) | nt | 11
CCOc1cccc(/C=N/n2c(=O)[nH]c3ccccc3c2=O)c1OC | nt | -5
O=C1CC(c2ccc(C(F)(F)F)cc2)CC(=O)N1c1ccc(I)cc1F | -0.2 | nt
c1ccc(CNn2cnnc2)cc1 | 1.1 | -19
Cc1ccc(NC(=O)CSC2=NC3(CCCCC3)Nc3ccccc32)cc1 | 0.8 | 5
O=C1c2ccc(Oc3ccc4c(c3)C(=O)N(c3ncccn3)C4=O)cc2C(=O)N1c1ncccn1 | 0.7 | -1
Cc1ccc(C(=O)c2coc3c2cc(O)c2ccccc23)cc1 | 2.9 | 6
COC(=O)CNC(=O)c1cccc(F)c1 | -2.8 | -1
Cc1[nH][nH]c(=O)c1C(c1ccncc1)C(C#N)C#N (stereo not drawn) | 0.9 | 6
FC(F)(F)Sc1ccc2noc(-c3ccccc3)c2c1 | -1.5 | 2
CCCCN(C)S(=O)(=O)c1ccc(-c2ccc(=O)[nH]n2)s1 | nt | 16
Cc1cc(=O)oc2c1c(-c1ccccc1)nn2-c1ccccc1 | -2.1 | nt
COc1cccc(OC)c1C(=O)Oc1cccc2ccc(C)nc12 | nt | 9
CC1CCCC(C)N1C(=O)c1cc(-c2ccc3c(c2)OCO3)on1 (stereo not drawn) | nt | 0
COc1ccc(CNC(=O)CN2N=C(c3ccc(Cl)cc3)CCC2=O)c(OC)c1 | -0.2 | 9
Cc1cc(C)c(NC(N)=O)c(C)c1 | 1.7 | nt
Cc1nc2ccccc2n1CC(=O)Nc1cccc(Br)c1 | -1.8 | -19
Cc1cc(C)cc(N2C(=O)CSC2c2cccs2)c1 (stereo not drawn) | 0.6 | 0
NC(=O)c1ccsc1NC(=O)C1=NN(c2ccccc2)C(=O)CC1 | nt | -5
N#Cc1c(Cl)cccc1-n1cccc1 | -1.4 | nt
N#CC1=C(N)Oc2n[nH]c(-c3ccccc3)c2C12C(=O)Nc1ccccc12 (stereo not drawn) | nt | 20
COc1ccc(S(=O)(=O)N2CCCc3ccccc32)cc1C(=O)O | nt | -17
CSCC(CSC)OC(=O)Nc1ccccc1 | 0.0 | nt
O=C1NC(=O)N(C2CCCCC2)C(=O)/C1=C\c1ccc(-c2ccc(C(=O)O)cc2)o1 | 15 | 7
C/C(=N\N=C1/NC(=O)CS1)c1cccc2ccccc12 | nt | -6
CN(C)CCNCc1ccc(-c2ccccc2)o1 | -2.0 | 13
N#Cc1cccc(COc2ccc(Cl)cc2)c1 | -0.6 | nt
CCN(Cc1ccccc1)Cc1c(O)ccc2oc(C)c(C(=O)NC3CCCC3)c12 | nt | 25
CCOC(=O)NC(=O)c1cn(Cc2ccccn2)c(=O)[nH]c1=O | -2.1 | nt
COc1cc(-c2nnc(COC(=O)C3(c4ccccc4)CC3)o2)cc(OC)c1OC | nt | -7
Cc1cc(-n2nc(-c3cccc(C(F)(F)F)c3)cc2N)nc2c1c(C)nn2C | -3.0 | nt
Cc1cc(NC(=O)CN2CCc3ccccc3C2)nc2c1c(=O)oc1ccccc12 | nt | 35
NC(=O)CN1C(=O)c2cccc3cccc1c23 | 1.4 | 9
CCC(C)n1c(=O)[nH][nH]c1=S (stereo not drawn) | 9.6 | nt
CCc1ccc(-c2nn(-c3ccccc3)cc2C#N)cc1 | nt | -13
O=C1c2ccccc2C(=O)N1CCCO | -0.5 | nt

Rewritten tab-delimited: entries from further up.
smiles	MgrA-DNA mod	S aureus helic
N#CC1=C(N)Oc2n[nH]c(-c3ccccc3)c2C12C(=O)Nc1ccccc12 (stereo not drawn)	nt	20
COc1ccc(S(=O)(=O)N2CCCc3ccccc32)cc1C(=O)O	nt	-17
CSCC(CSC)OC(=O)Nc1ccccc1	0.0	nt

The listing continues:
SMILES | MgrA-DNA mod | S aureus helic
CCN(C(=O)c1cn(-c2ccccc2)nc1-c1cccs1)c1ccccc1 | nt | -3
FC(F)(F)c1cc(-c2ccco2)nc(N2CCCC2)n1 | -0.1 | 9
COc1cc2nc(NC(=O)c3ccccc3)[nH]c(=O)c2cc1OC | 12 | 9
NC(=S)Nc1ccccc1N1CCOCC1 | -0.1 | nt
CCC(=O)Nc1nc(-c2ccc(OC)cc2)cs1 | 3.5 | 5
c1ccc(CCCc2nc(-c3ccccn3)no2)cc1 | nt | 0
Cc1nccn1C(=O)c1ccccc1C(=O)O | -0.8 | 16
CCOC(=O)c1oc2ccccc2c1N=Cc1c(O)n(CC)c(=S)n(CC)c1=O | nt | -13
CN=c1scc(-c2ccc(Br)s2)n1/N=C1\C(=O)Nc2ccccc21 | nt | -51
CCC(=O)N1CCc2cc(Br)cc(S(=O)(=O)N(CC)CCN(C)C)c21 | nt | 6
O=C(/C=C/c1cccs1)NCCC1=CCCCC1 | nt | 9
Cc1cc(=O)[nH]c(-c2cccc(Cl)c2)n1 | -2.7 | nt
O=C(O)CCn1c(=O)n(CCC(=O)O)c2c(Cl)cc(Cl)cc21 | -0.1 | -11
O=C(O)CCNc1ncnc2ccccc12 | 4.7 | 15
Cc1ccc(Cn2c(=O)c3ccccc3n3c(SCC4CCCO4)nnc23)cc1 (stereo not drawn) | nt | -5
CN(C)C(Cn1c(=S)[nH]c2ccccc2c1=O)c1ccccc1 (stereo not drawn) | nt | 13
O=C(Oc1ccc(Cl)cc1)c1snnc1-c1ccccc1 | -5.0 | nt
Cc1cc(C)n2nc(N3C(=O)CCC3=O)nc2n1 | nt | 14
CC1CCN(c2cc(N(C)C)c3noc4c3c2C(=O)c2ccccc2-4)CC1 | 6.6 | -23
CC1=C(C#N)C(c2ccccc2)C2=C(CC(c3ccc(Br)cc3)CC2=O)O1 (stereo not drawn) | -1.4 | -2
C=CCn1c(SCC(=O)Nc2c(C)n(C)n(-c3ccccc3)c2=O)nnc1-c1ccncc1 | nt | -8
O=C1C(CCS(=O)c2ccccc2)C(=O)N(c2ccccc2)N1c1ccccc1 (stereo not drawn) | -0.8&4.9 | nt
c1ccc(-c2nc(N3CCCC3)nc3ccccc23)cc1 | nt | 3
CCN1C(=O)/C(=C2\SC(=Nc3cccc(Cl)c3C)NC2=O)c2ccccc21 | -4.6 | 1
COC(=O)c1ccc2c(c1)N(CC#N)C(=O)CS2 | 1.2 | 12
COc1cccc(NC(=O)Cn2c(=O)n(CC(=O)NCCc3ccccc3)c(=O)c3ccccc32)c1 | nt | 0
COc1cc(C=Nc2cc(C)ccc2C)cc(OC)c1OC | -3.0 | -1
CCOc1ccc(C(=O)Nc2sc3c(c2C(=O)NCc2cccnc2)CCCC3)cc1 | nt | -5
COc1ccc(-c2coc3ccccc3c2=O)cc1 | -2.0 | nt
O=C(O)Cn1c(O)c(C=Nc2ccccc2)sc1=S | -2.3 | nt
O=C1Oc2ccccc2C(=O)/C1=C/N1CCCCC1 | nt | -17
Cc1ccc2c(c1C)NC(C(=O)O)C1CC=CC21 (stereo not drawn) | 64* | -14
Cc1cc(C(=O)NNc2ccc(C(C)C)cc2)n(C(C)(C)C)n1 | nt | 12
CC1CC(C)CN(C(=O)Cn2cnc3c2c(=O)n(C)c(=O)n3C)C1 (stereo not drawn) | 2.0 | -1
CC1CCCC(NC(=O)COC(=O)c2n[nH]c3ccccc23)C1C (stereo not drawn) | -0.8 | -5
CCc1cc2c(N(CC)CC)nc(C)nc2s1 | -5.5 | 5
COC(=O)c1ccc(CN2C(=O)NC(Cc3c[nH]c4ccccc34)C2=O)cc1 (stereo not drawn) | nt | 14
N#CC(C#N)=C(N)/C(C#N)=C/c1ccco1 | 1.2 | -3
CCc1ccccc1NC(=O)C(CC)n1nc(-c2ccc(OC)cc2)ccc1=O (stereo not drawn) | nt | 0
COc1ccc(NC(=O)C(Cc2ccccc2)n2cccc2)cc1 (stereo not drawn) | nt | -19
COc1ccc(C(=O)NCc2nnc(SCc3nc4ccccc4c(=O)[nH]3)n2C)cc1 | -1.5 | 8
COC(=O)c1cc(=O)n2c(-c3cccs3)nnc2s1 | nt | -29
O=C(Nc1ccccc1)c1csc(-c2ccccc2)n1 | -1.6 | nt
Cc1cccc(NC(=O)CSc2ncnc3c2oc2ccccc23)c1 | nt | 0
O=C(OC1c2ccccc2C(=O)N1Cc1ccccc1)c1cccc(Cl)c1 (stereo not drawn) | 4.2 | 18
COc1ccc(C)cc1N(C)C(=O)c1coc(=O)c2ccccc12 | nt | 15
COc1ccc(C(CNC(=O)c2oc3ccc(C)cc3c2C)N2CCCCC2)cc1 (stereo not drawn) | nt | 7
CC1CCC(N2CC(=O)N(Cc3ccc4c(c3)OCO4)C(c3ccc(F)cc3)C2=O)CC1 (stereo not drawn) | nt | 4
CCN(Cc1ccc(Br)s1)C(=O)CSc1nnc(C2CC2)n1C1CC1 | nt | 7
COc1cccc(-n2cnnc2SC(C#N)Cc2ccc(C)cc2)c1 (stereo not drawn) | nt | 0
N#Cc1c(NC(=O)CCCCl)sc2c1CCCC2 | 1.0 | -12
Cc1ccsc1/C=C1/CC/C(=C\c2sccc2C)C1=O | nt | 31
Cc1cc2cc(CNS(=O)(=O)N(C)C)ccc2n1C | nt | 10
COc1ccccc1-n1cnnc1SCC(=O)N(C)CC(=O)Nc1ccccc1Cl | nt | 0
Cc1ccc2[nH]c(=O)c(-c3noc(-c4ccccc4)n3)cc2c1 | nt | 5
O=C(COc1ccccc1O)Nc1cccc(Br)c1 | -0.9 | -21
O=[N+]([O-])c1ccc(C=Nc2cc(C(F)(F)F)ccc2N2CCOCC2)s1 | -2.0 | nt

Of the compounds above, 13 have a thiophene ring, fused or not:
SMILES | MgrA-DNA mod | S aureus helic
CCCCN(C)S(=O)(=O)c1ccc(-c2ccc(=O)[nH]n2)s1 | nt | 16
Cc1cc(C)cc(N2C(=O)CSC2c2cccs2)c1 (stereo not drawn) | 0.6 | 0
NC(=O)c1ccsc1NC(=O)C1=NN(c2ccccc2)C(=O)CC1 | nt | -5
CCN(C(=O)c1cn(-c2ccccc2)nc1-c1cccs1)c1ccccc1 | nt | -3
CN=c1scc(-c2ccc(Br)s2)n1/N=C1\C(=O)Nc2ccccc21 | nt | -51
O=C(/C=C/c1cccs1)NCCC1=CCCCC1 | nt | 9
CCOc1ccc(C(=O)Nc2sc3c(c2C(=O)NCc2cccnc2)CCCC3)cc1 | nt | -5
CCc1cc2c(N(CC)CC)nc(C)nc2s1 | -5.5 | 5
COC(=O)c1cc(=O)n2c(-c3cccs3)nnc2s1 | nt | -29
CCN(Cc1ccc(Br)s1)C(=O)CSc1nnc(C2CC2)n1C1CC1 | nt | 7
N#Cc1c(NC(=O)CCCCl)sc2c1CCCC2 | 1.0 | -12
Cc1ccsc1/C=C1/CC/C(=C\c2sccc2C)C1=O | nt | 31
O=[N+]([O-])c1ccc(C=Nc2cc(C(F)(F)F)ccc2N2CCOCC2)s1 | -2.0 | nt

The list is partial. The share of hits here may be higher or lower than overall.
